From PubChem BioAssay
T cruzi inh: T. cruzi replication inhibition. T. cruzi beta-gal in NIH3T3, luminescence, 90 h. inhibition, % (no concentration beside the values). hit rate 1.4% among 300,000;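 active means mean inhibition across valid replicates above about 55%, limit read from the data; inconclusive means mean below that limit but half or more replicates reach it; inactive means mean below it, under half of replicates reach it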;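 further: signal also drops with host cell toxicity which is not excluded here; 0% = plate median of DMSO wells and 100% = zero luminescence signal; higher percent means less beta-gal luminescence so fewer parasites; stock transfer was 50 nL into about 50 µL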
Calb FLC: affects C. albicans growth with fluconazole. C. albicans CaCi-2 (fluconazole-resistant clinical isolate) + fluconazole, Alamar Blue growth, 48 h. growth inhibition, % (test concentration not listed). hit rate 0.57% among 300,000. AID 1979;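 active means most replicates above 75%; inconclusive means exactly half above 75%; inactive means most below 75%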;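 further: all wells also contain fluconazole at 8 µg/ml as a sub-toxic cotreatment; 0% = median of DMSO wells and 100% = median of geldanamycin control wells; wells of about 8 µL received 7.5 nL stock; the first replicate is given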
Beta cell apopt: beta cell apoptosis inhibition; protection from apoptosis, % (concentration not given with the values); AID 435005; INS-1E cytokine-induced death, ATP luminescence, 48 h; percent of positive-control rescue, neutral wells zero; hit rate 0.8% among 300,000;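 active means all replicates at 75% or more, or half of them and the mean; inconclusive means half reach 75% but not the mean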;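 further: 0% = cytokine-treated negative control wells and 100% = positive control rescue; higher means more ATP so stronger rescue from cytokine killing; wells of about 40 µL received 100 nL stock; the first replicate is given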
A1 inh: inhibitors of the anti-apoptotic protein A1, read as caspase activation; MEF A1-2A-BIM cells, Caspase-Glo 3/7 luminescence, 3 h; percent of clofoctol response, vehicle zero; caspase activation, % (test concentration not listed); hit rate 0.066% among 330,000; AID 2462;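 active means over half of replicate activation scores above 10%, or exactly half above 10 with the replicate mean above 10; inconclusive means replicate mean below 10 yet half the replicates above 10; inactive means over half of replicates below 10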;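 further: wells of about 30 µL received 50 nL stock; many hits fall short of the cut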
Vif TR-FRET: HIV-1 Vif–A3G interaction blockers – biochemical, TR-FRET, GST-Vif 1-94, biotin-A3G peptide, dose response retest, primary screen (AID 1117319) | one-dose inhibition, %; IC50 in µM for titrated hits | hit rate 0.57% among 260,000 | TR-FRET GST-Vif / biotin-A3G peptide binding; higher % means a stronger effect; test concentration not given here; strong numbers were not always called active;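 active means above the screen mean plus three standard deviations and confirmed in dose response; inconclusive means results disagree or hit not tested in dose response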;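 further: Vif residues 1-94 fused to GST binding biotinylated APOBEC3G peptide 110-148; 0% = full assay without inhibitor and 100% = GST in place of GST-Vif; retest series ran down from 100 µM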
Ecoli rRNA inh: selective bacterial rRNA inhibition in E. coli | E. coli WT GFP vs humanized-ribosome RFP mutants, fluorescence, 24 h; hits give low values; DMSO median 0, no signal -100 | AID 720706 | GFP signal change (wild-type ribosome), % (concentration not given with the values) | hit rate 1.6% among 350,000;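 active means significant combined selectivity score with lowered wild-type GFP, culture density cut under 30%, mutant RFP and density less affected; inactive means any of these conditions unmet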; further: one replicate is shown; some compounds called inactive have numbers as strong as hits
AF4-AF9 inh: MLL-AF4/AF9 protein interaction inhibition; P42568; AlphaScreen, biotin-AF4 peptide binding to FLAG-AF9; inhibition, % at 10 µM; hit rate 0.47% among 350,000;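 active means every replicate reaching a set inhibition limit, whatever the replicate mean, cut at about 25% in these data; inconclusive means mean inhibition reaches that limit but some replicates miss it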;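 further: 0% = plate neutral control median and 100% = total signal loss; the record names both 10 and 1 µM as test concentration; the first replicate is given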
Target sequence (P42568 whole entry, looked up): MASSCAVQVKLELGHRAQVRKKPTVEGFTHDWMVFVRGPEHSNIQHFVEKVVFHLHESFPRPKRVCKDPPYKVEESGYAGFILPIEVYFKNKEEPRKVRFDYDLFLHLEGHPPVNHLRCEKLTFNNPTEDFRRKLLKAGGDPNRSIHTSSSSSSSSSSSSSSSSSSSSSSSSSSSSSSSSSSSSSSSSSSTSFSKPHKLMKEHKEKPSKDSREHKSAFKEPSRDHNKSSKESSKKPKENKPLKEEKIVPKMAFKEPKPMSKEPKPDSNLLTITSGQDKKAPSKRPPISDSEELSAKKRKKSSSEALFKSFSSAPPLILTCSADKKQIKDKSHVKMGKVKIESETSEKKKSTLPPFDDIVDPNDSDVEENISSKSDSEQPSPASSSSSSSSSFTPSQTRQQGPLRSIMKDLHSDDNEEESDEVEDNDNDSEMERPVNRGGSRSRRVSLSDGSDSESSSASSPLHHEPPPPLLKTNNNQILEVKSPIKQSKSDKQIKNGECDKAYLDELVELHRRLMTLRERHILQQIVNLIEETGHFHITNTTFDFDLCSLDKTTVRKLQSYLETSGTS
RanGTP-Impb inh: inhibitors of RanGTP-importin-beta interaction, primary screen, biochemical, FRET, CFP-Ran, YFP-importin-beta, homogeneous; cell-free CFP-Ran/YFP-importin-beta FRET ratio; inhibition, % (test concentration not listed); hit rate 1.1% among 300,000; AID 2216;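 active means most replicates above 15%; inconclusive means exactly half above 15%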;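 further: 0% = DMSO wells and 100% = Ran loaded with GDP instead of GTP; wells of about 40 µL received 100 nL stock; the first replicate is given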
Ecoli rRNA inh OD600: further read-out of Ecoli rRNA inh, marked with its call; OD600 change, %; measured here: OD600 growth;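 optical density of the mix in the first replicate; 0 = DMSO median and -100 = no signal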
Ecoli rRNA inh RFP: second read-out of Ecoli rRNA inh, no call of its own (marks repeat the call); RFP signal change, %; measured here: RFP humanized mutant strains;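 first replicate; 0 = DMSO median and -100 = no signal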
* = called active by the depositor; u = inconclusive; x = not tested or not shown.

SMILES | T cruzi inh | Calb FLC | Beta cell apopt | A1 inh | Vif TR-FRET | Ecoli rRNA inh | Ecoli rRNA inh OD600 | Ecoli rRNA inh RFP | AF4-AF9 inh | RanGTP-Impb inh
COc1ccc(C)cc1NC(=O)C(OC(=O)Cn1cnc2c1c(=O)n(C)c(=O)n2C)c1ccccc1 (stereo unspecified) | -10 | -7 | x | 0.3 | -6% | 3 | 1 | 0.7 | -1.1 | 0.7
CCc1nc2c(c(SC)nn2-c2ccccc2)c(N)c1C(=O)OC | 10 | 2 | -1 | 0.4 | -3% | x | x | x | x | -0.4
COc1ccc(N2CCN(CCOc3ccc4c(C)cc(=O)oc4c3)CC2)cc1 | 7 | -20 | 7 | -1.6 | -9% | 9 | 20 | -1.8 | 5.0 | 4.9
CCCCc1cc(=O)oc2cc(C)cc(OCC(=O)N3C[C@H]4C[C@@H](C3)c3cccc(=O)n3C4)c12 | 1 | 2 | -1 | -0.1 | x | x | x | x | 2.0 | -2.0
CCn1c(Cc2ccccc2)nnc1SCC(=O)Nc1ccccc1O | -2 | 9 | -10 | 0.2 | 8% | -9 | -6 | 0.3 | 0.8 | u
O=C(CCCCl)NC(=S)Nc1cc(C(F)(F)F)ccc1N1CCOCC1 | 10 | 3 | -2 | -0.9 | -5% | -46 | -66 | -4.4 | 2.1 | 1.3
CCOC(=O)c1sc(=S)n(-c2ccc(C)cc2)c1N | 4 | 11 | 3 | 0.4 | -3% | -1 | -2 | -2.1 | -0.8 | -1.9
CC(NC(=O)c1ccc(=O)oc1)c1ccccc1 (stereo unspecified) | -26 | -5 | -1 | 1.1 | 12% | x | x | x | x | 3.6
CCN(CC)S(=O)(=O)c1ccc(N2CCOCC2)c(NS(=O)(=O)c2cc(C(C)(C)C)ccc2C)c1 | 29 | -5 | x | -0.2 | x | x | x | x | -2.6 | u
CC(C)CNC(=S)NNC(=O)c1csc2ccccc12 | -8 | 13 | -8 | 0.0 | 0% | x | x | x | x | 0.7
Cc1cccc(OS(=O)(=O)NC(=O)OCC2CCCN3CCCCC23)c1 (stereo unspecified) | 0 | 2 | 0 | -0.8 | x | 18 | 11 | 0.8 | -1.8 | -1.8
Cc1ccc(/C(N)=N/OC(=O)c2ccc(C)cc2Cl)cc1 | -6 | -10 | -18 | -7.2 | 17% | 5 | 4 | 1.5 | -12 | 1.6
O=C(N/N=C/c1cccnc1)C(O)c1ccccc1 (stereo unspecified) | -15 | -25 | 4 | 1.1 | 2% | 7 | 16 | 2.6 | -2.6 | 1.8
CCC1CCCCN1CCNC(=O)CCS(=O)(=O)c1ccc(Br)cc1 (stereo unspecified) | 2 | -4 | -8 | 0.1 | -8% | x | x | x | x | 3.6
Cc1ccc(C(=O)NNC(=O)C2CC2)cc1Br | -6 | 2 | -2 | -0.4 | x | 17 | 21 | 0.4 | -0.9 | -2.0
Oc1ccc2ccccc2c1N=Nc1nccs1 | 71* | 0 | 84* | 0.5 | u | 9 | -9 | -5.9 | 6.9 | -6.6
Cc1cc(/C=N/NC(N)=O)c(C)c(CO)c1 | -4 | 15 | 8 | 0.4 | u | 22 | 15 | -9.5 | 8.4 | 2.9
CCOc1ccc(C(=O)Nc2ccc(CN3CCOCC3)cc2)cc1Br | -7 | -2 | x | -0.3 | x | 7 | 2 | -0.8 | 4.6 | -0.8
COc1cc(S(=O)(=O)N2CCC(c3nc4ccccc4s3)CC2)ccc1S(=O)(=O)N1CC(C)CC(C)C1 (stereo unspecified) | 19 | 6 | 6 | 0.9 | u | x | x | x | x | 4.4
O=C(NCC(O)c1ccccc1)c1ccc(Cl)c(S(=O)(=O)N2CCCC2)c1 (stereo unspecified) | -10 | 7 | 1 | -0.6 | 2% | x | x | x | x | 0.0
COc1cccc(C(=O)Nc2c(C)nn(-c3ccccc3)c2C)c1 | -3 | 2 | -2 | -0.3 | x | 5 | 0 | -3.0 | 3.5 | 0.3
Cn1c(C(=O)N2CCN(c3ncccn3)CC2)cc2c(=O)n(C)c3ccccc3c21 | -6 | 9 | 0 | 0.0 | u | -14 | -18 | -1.8 | -0.3 | 1.2
N#Cc1nc(-c2ccc(Cl)cc2)oc1NCc1ccco1 | 2 | -10 | -1 | -1.4 | -4% | x | x | x | x | 6.7
O=C1c2ccccc2S(=O)(=O)c2cc(N3CCC4(CC3)OCCO4)ccc21 | -3 | -13 | 8 | 0.8 | x | 7 | 8 | 14 | -14 | -66
Cc1ncc(C[n+]2ccc(C)c(C)c2)c(N)n1 | -3 | 8 | 0 | 0.3 | x | 5 | -1 | -7.7 | 1.9 | 5.3
CCOC(=O)C(C)Oc1cccc2c(=O)n(CC(=O)NCc3ccccc3)ccc12 (stereo unspecified) | 17 | 5 | 13 | -0.4 | -2% | 12 | 9 | 1.0 | -5.3 | 3.3
CC(C)CC(N=Cc1c(O)c2ccccc2oc1=O)C(=O)O (stereo unspecified) | -6 | -10 | 1 | -0.4 | 7% | 11 | -1 | -0.5 | 0.0 | u
COc1ccc(-c2nnc(SCC(=O)N3CCOCC3)n2C)cc1OC | -1 | -19 | 1 | -0.3 | 17% | x | x | x | x | 2.7
CC(=O)c1ccc(N=Nc2ccc(N(C)C)cc2)cc1 | 14 | -16 | 3 | -7.8 | -6% | -14 | -14 | 2.2 | 4.3 | -6.8
COc1cc(OC)c2nc(C)c3c(c2c1)N(c1ccc(O)cc1)CC3 | 83* | -7 | 46 | -1.1 | -9% | x | x | x | x | -0.2
CC1=C(C(=O)OC(C)C)C(c2cccnc2)n2ncnc2N1 (stereo unspecified) | 11 | -1 | -5 | 0.3 | -1% | 6 | 0 | -7.2 | -8.1 | 3.5
Cc1ccc(S(=O)(=O)Nc2ccc(Cl)cc2)cc1NC(=O)c1cc2c(s1)CCCC2 | 75* | 15 | 8 | 1.5 | -15% | x | x | x | x | 5.1
Nc1cc([N+](=O)[O-])ccc1N1C(=O)CCCC1=O | -13 | -2 | -1 | 2.2 | u | 10 | 18 | -0.3 | 3.4 | 1.0
CCC(=O)Nc1cc(C(=O)OCC(=O)c2ccccc2Cl)ccc1C | -2 | 10 | -5 | -0.9 | 72% | x | x | x | x | 1.6
CC(NC(=O)CNC(=O)C1CCCCC1)c1cccc(Cl)c1 (stereo unspecified) | -3 | -4 | -3 | 0.1 | x | 5 | 5 | 1.4 | -0.9 | 0.3
COc1cc(NC(=S)NC(=O)c2ccc(C(C)(C)C)cc2)ccc1NC(=O)c1cccs1 | 13 | 10 | 20 | 0.1 | x | -3 | 0 | 1.1 | 0.4 | 7.5
CC1CC(C)CN(CCOc2ccc(Br)cc2)C1 (stereo unspecified) | 23 | 0 | 0 | -0.3 | x | 7 | 1 | -3.5 | -22 | 0.6
CC(NC(=O)C1CC1)C(c1cccs1)N1CCN(c2ccccc2)CC1 (stereo unspecified) | -6 | 0 | -1 | 0.2 | 5% | -1 | 6 | 3.2 | 14 | -1.1
COc1ccc(OCCCC(=O)N(CCC2=CCCCC2)c2c(N)n(Cc3ccccc3)c(=O)[nH]c2=O)cc1 | 13 | x | 1 | -0.2 | 2% | 9 | 21 | 1.4 | -0.6 | -1.8
COc1ccc(/C=C2\SC(=O)N(CCC(=O)N3CCN(C)CC3)C2=O)cc1 | -1 | -3 | x | -0.7 | x | -7 | -2 | -3.0 | -0.4 | -0.3
COC(=O)C1=C(NC(=O)CCCCl)CCS1 | -19 | 1 | -1 | u | u | x | x | x | x | -2.4
O=C(NC(Cc1ccccc1)C(=O)N1CCc2ccccc2C1)c1ccccc1 (stereo unspecified) | 15 | 6 | -8 | -0.7 | x | -2 | -3 | 2.3 | 2.7 | 2.7
COc1cc(OC)cc(-c2nnc(SCc3ccc(C(=O)O)cc3)o2)c1 | -3 | 1 | 4 | 0.2 | -5% | -31 | -26 | -5.2 | -2.3 | -1.4
CCN(CC)CCN(Cc1cc2cc3c(cc2[nH]c1=O)OCO3)C(=S)NC | -3 | -2 | -4 | -0.4 | x | 8 | 6 | -1.5 | -0.4 | -36
CN(C)/C=C/C(=O)c1cccc(Cl)c1 | -25 | -10 | -10 | -0.7 | u | x | x | x | x | -2.2
COc1ccccc1NC(=O)C/C(C)=N/NC(=O)c1ccccn1 | 1 | -2 | 1 | 0.0 | x | 2 | 7 | -0.9 | -1.4 | -1.9
COc1cccc([C@@H]2Oc3ccc(OC)cc3C(=O)[C@H]2OC(=O)NCc2ccc3c(c2)OCO3)c1 | -3 | -8 | 2 | -1.2 | 7% | x | x | x | x | 7.4
COc1ccccc1Cn1c(=S)[nH]c2cc(C(=O)NCc3cccnc3)ccc2c1=O | 2 | -1 | -1 | -0.4 | -1% | 2 | 2 | -2.1 | -1.0 | -0.2
O=C(N/N=C\C=C\c1ccc2c(c1)OCO2)c1cccnc1 | 2 | x | 3 | -0.4 | -7% | x | x | x | -1.3 | x
c1ccc(CSc2nnc(-c3ccco3)n2Cc2ccccc2)cc1 | 6 | -8 | -12 | 0.0 | 19% | x | x | x | x | -1.9
O=C(c1ccccc1-c1ccccc1)N1CCOCC1 | -11 | -3 | 1 | 0.8 | -7% | x | x | x | x | 2.7
COc1ccc(C(=O)NC(=O)COC(=O)c2ccc3ncsc3c2)cc1 | -12 | -21 | -7 | -0.5 | 8% | x | x | x | x | 1.8
COc1cc(/C=N/NC(=S)NCCN2CCOCC2)ccc1O | -10 | 5 | -7 | 0.1 | 7% | x | x | x | x | 1.3

Molecules listed so far that have an aryl thioether with sulfur outside any ring, in the order listed:
SMILES | T cruzi inh | Calb FLC | Beta cell apopt | A1 inh | Vif TR-FRET | Ecoli rRNA inh | Ecoli rRNA inh OD600 | Ecoli rRNA inh RFP | AF4-AF9 inh | RanGTP-Impb inh
CCc1nc2c(c(SC)nn2-c2ccccc2)c(N)c1C(=O)OC | 10 | 2 | -1 | 0.4 | -3% | x | x | x | x | -0.4
CCn1c(Cc2ccccc2)nnc1SCC(=O)Nc1ccccc1O | -2 | 9 | -10 | 0.2 | 8% | -9 | -6 | 0.3 | 0.8 | u
COc1ccc(-c2nnc(SCC(=O)N3CCOCC3)n2C)cc1OC | -1 | -19 | 1 | -0.3 | 17% | x | x | x | x | 2.7
COc1cc(OC)cc(-c2nnc(SCc3ccc(C(=O)O)cc3)o2)c1 | -3 | 1 | 4 | 0.2 | -5% | -31 | -26 | -5.2 | -2.3 | -1.4
c1ccc(CSc2nnc(-c3ccco3)n2Cc2ccccc2)cc1 | 6 | -8 | -12 | 0.0 | 19% | x | x | x | x | -1.9

Some of the compounds tested (hit frequency here may not be typical).
